Lassa entry inh – inhibitors of Lassa virus binding or cell entry | 300,000 tested, 1.2% active | Lassa virus pseudotype entry inhibition, cell reporter; control for the full effect not named in the record | Potency, µM (top dose mostly 37.9 µM), for inactives: at the top dose activity change, negative = inhibition, hits mostly inhibitors; active means well fitted inhibition curve with a large enough effect; inconclusive means small, poorly fitted or top-dose-only effect, or effect the other way; inactive means flat fitted curve, though single readings scatter; tested in HEK293 cells; also: % is scaled to controls: 0 for no effect and ±100 for the full control effect; nearly all actives have a fitted effect of over 50% in size; luciferase read-out
Cruzain inh noDet – blocks cruzain activity in detergent-free assay | 200,000 tested, 2.3% active | purified cruzain, Z-FR-AMC fluorescence, no detergent | Potency, µM, for the others: max response, negative = inhibition, usual class: inhibitors | P25779; active = well fitted curve in the direction sought with a large enough effect; inconclusive = small, poorly fitted or top-dose-only effect, or another doubt; inactive = no such curve, though single readings can be large; an effect the other way counts as inactive or inconclusive;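 also: plate controls were enzyme without inhibitor for no effect and buffer without enzyme for full effect; nearly all actives have a fitted effect of over 40% in size; top concentration of the series not given in the record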
Target sequence (P25779 123-467 limits assumed): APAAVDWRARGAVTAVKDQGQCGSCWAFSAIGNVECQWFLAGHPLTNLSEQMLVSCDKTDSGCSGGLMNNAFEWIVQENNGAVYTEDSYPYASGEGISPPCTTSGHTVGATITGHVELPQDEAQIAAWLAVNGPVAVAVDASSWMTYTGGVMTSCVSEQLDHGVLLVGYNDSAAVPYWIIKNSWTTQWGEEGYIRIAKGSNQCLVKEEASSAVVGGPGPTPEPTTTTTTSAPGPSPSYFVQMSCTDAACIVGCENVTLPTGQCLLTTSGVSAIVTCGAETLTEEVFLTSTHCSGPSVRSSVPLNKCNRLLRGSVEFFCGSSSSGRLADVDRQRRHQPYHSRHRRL
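Purified cruzain at 1.5 nM, pre-incubated 15 min with compound at room temperature in 100 mM sodium acetate pH 5.5, 5 mM DTT, 0.00005% Triton X-100. Reaction started with 2 uM Z-FR-AMC; AMC fluorescence increase over 60 s gives rate.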
Marburg entry inh – Marburg virus entry inhibition; Marburg virus pseudotyped entry inhibition, cell reporter; control for the full effect not named in the record; about a third of the inactives were read at about 46 µM; Potency, µM (doses to about 37.8 µM), without a hit: at the top dose activity change, negative = inhibition, usual class: inhibitors; 300,000 tested, 1.8% active; AID 540276; active = well fitted inhibition curve with a large enough effect; inconclusive = small, poorly fitted or top-dose-only effect, or effect the other way; inactive = flat fitted curve, though single readings scatter; tested in HEK293 cells; about a fifth of its hits are not listed in these tables; also: % is scaled to controls: 0 for no effect and ±100 for the full control effect; luciferase read-out
RE007 growth inh – less growth of the S. pombe RE007 Vpr strain | S. pombe RE007 Vpr strain, BacTiter-Glo ATP luminescence, 24 h; control for the full effect not named in the record | Potency, µM (titrated, usually from 92.2 µM), without a hit: at the highest dose activity change, negative = less growth | 360,000 tested, 0.21% active | AID 651644; active = well fitted falling curve with a large enough effect; inconclusive = small, poorly fitted or top-dose-only effect; inactive = no such curve, though single readings can be large or run the other way;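 also: % is scaled to controls: 0 for no effect and ±100 for the full control effect; nearly all actives have a fitted effect of over 50% in size; the assay follows cell death caused by Vpr and the record does not say whether a fall means rescue or toxicity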
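Fission yeast strain RE007, carrying one chromosomally integrated HIV-1 vpr copy, was seeded at OD 0.01 in PMG+AL medium with 23 nL pinned compound. After 24 h at 30 °C and 99% humidity, viability was read by BacTiter-Glo luminescence.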
SARS PLpro yeast – SARS-CoV PLP inhibition in yeast; Potency, µM (highest dose often 32.9 µM), for the others: at the highest dose activity, positive = growth rescue; AID 485353; 330,000 tested, 0.19% active; S. cerevisiae expressing SARS-CoV PLpro, growth rescue; control for the full effect not named in the record; also: 0% is about no effect; nearly all actives have a fitted effect of over 55% in size; growth read by luminescence after 48 h
Cruzain inh Det – cruzain (T. cruzi) inhibition with detergent; purified cruzain, Z-FR-AMC fluorescence, 0.01% Triton; Potency, µM, for inactives: max response, negative = inhibition, hits mostly inhibitors; 200,000 tested, 0.43% active; active = well fitted curve in the direction sought with a large enough effect; inconclusive = small, poorly fitted or top-dose-only effect, or another doubt; inactive = no such curve, though single readings can be large; an effect the other way counts as inactive or inconclusive;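 also: plate controls were neutral wells for no effect and buffer without enzyme for full effect; nearly all actives have a fitted effect of over 40% in size; top concentration of the series not given in the record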
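Enzyme 1.5 nM, Z-FR-AMC 2 uM, NaOAc 100 mM pH 5.5, DTT 5 mM, Triton X-100 0.01%; 15 min RT compound preincubation; kinetic ex360/em450, 60 s delta.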
2A StopGo – lowers the luciferase signal of an FMDV 2A StopGo reporter; human cells with a luciferase reporter of 2A StopGo recoding; control for the full effect not named in the record; Potency, µM (doses to about 57.9 µM), inactives show top-dose signal change, negative = less light; 410,000 tested, 1.2% active; AID 1159524; active = well fitted falling curve with a large enough effect; inconclusive = small, poorly fitted or top-dose-only effect; inactive = no such curve, though single readings can be large or run the other way; tested in HEK293T cells; also: % is scaled to controls: 0 for no effect and ±100 for the full control effect; nearly all actives have a fitted effect of over 45% in size; luciferase light after 4 h
NS1 inh – blocks influenza NS1 protein function | Potency, µM (top dose mostly 46.1 µM), for the others: at the highest dose activity, positive = more growth | 270,000 tested, 0.4% active | S. cerevisiae slowed by influenza A NS1, growth recovery by OD600 | AID 2326; also: actives are rising curves; nearly all actives have a fitted effect of over 50% in size
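A cell-based growth assay was used: compounds that relieve NS1-induced slow growth of budding yeast raise OD600. Assay medium was yeast nitrogen base with ammonium sulphate and -URA supplement, pH 6.0, with 2% galactose.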
An asterisk follows results filed as active; ? = inconclusive; . = no result given; & = joins results of further samples; [ ] = another dose, or the depositor's remark. Unless noted, calls follow the shape of the dose curve; as a rule, active means well fitted rising curve with a large enough effect; inconclusive means small, poorly fitted or top-dose-only effect; inactive means no such curve, though single readings can be large or run the other way. Potency is read from the fitted curve at half-maximal effect. No enrichment for hits; about 4.7% have a hit in one of these screens.

SMILES	Lassa entry inh	Cruzain inh noDet	Marburg entry inh	RE007 growth inh	SARS PLpro yeast	Cruzain inh Det	2A StopGo	NS1 inh
COC(=O)c1cc(-c2ccc(F)cc2)n(-c2ccccc2)n1	?	.	?	1%	0%	.	-13%	-7%
O=S(=O)(Nc1ccc(-c2nnc(SCc3ccc(Cl)cc3)o2)cc1)c1ccccc1	?	?	-11%	7%	2%	-2.0%	-19%	8%
CC(C)CC(=O)NC(=S)Nc1ccc(S(=O)(=O)N2CCCC2)cc1	2%	.	?	-6%	3%	.	-5%	14%
CCN1CCN(Cc2c(O)ccc3oc(C)c(C(=O)Nc4ccc(OC)cc4)c23)CC1	-9%[46.1 µM]	-13%	-14%[46.1 µM]	.	.	-3.7%	-19%	.
Cc1nn(-c2ccc(N3CCCC3)nn2)c(C)c1CCC(=O)NCc1ccc(OC(C)C)cc1	1%[46.1 µM]	-6%	.	.	.	-2.5%	-13%	.
CC(=O)Nc1ccc(S(=O)(=O)NC2(C(F)(F)F)C(=O)NC(C)=C2C#N)cc1 (configuration not stated)	?	.	?	6%	-1%	.	-4%	8%
CNC(=O)C1=C(C)Nc2nc3ccccc3n2C1c1ccc(F)cc1 (configuration not stated)	14%	.	16%	-3%	2%	.	15%	2%
CC(=O)Nc1c(C#N)c(C(C)(C)C)cn1C	10%	2%	14%	6%	3%	-1.8%	.	-1%
COc1ccc(C(=O)CCNc2cccc(Cl)c2)cc1	3%	-8%	?	380%	-2%	-2.7%	44%[activator]	3%
COc1cc(C2C3C(=O)N(c4ccccc4)C(=O)C3ON2c2ccccc2)cc(OC)c1OC (configuration not stated)	-3%	?	8%	-6%	-2%	-0.6%	-10%	-37%
NC(=O)NC(=O)COC(=O)[C@H](Cc1ccccc1)NC(=O)c1cccs1	0%	.	6%	13%	0%	.	1%	.
Cc1ccc(C)c(-c2nc3ccc(N)cc3[nH]2)c1	-2%	?	?	-8%	0%	-1.3%	25%	?
CC(/C=C(\NC(=O)c1ccccc1)C(=O)N=Nc1c(O)[nH]c2ccc(C)cc12)=C\c1ccccc1	?	25µM*	?	12%	2%	-2.5%	?	-3%
Cc1ccc(-c2n[nH]c3c2C(c2ccccc2)N(c2ccc(C(=O)O)cc2)C3=O)cc1 (configuration not stated)	?	.	-28%[46.1 µM]	-9%	2%	.	-11%	28%
O=C(NCCC(=O)N1CCN(c2ncccn2)CC1)c1ccccc1	-7%	-9%	25%	-3%	4%	6.0%	0%	1%
COc1ccc(CC(=O)NCC(c2ccc(N(C)C)cc2)N2CCOCC2)cc1OC (configuration not stated)	1%[46.1 µM]	2%	.	.	.	0.0%	-17%	.
CCOC(=O)CSC1=C(C#N)C(c2ccc(C)cc2)C2=C(CCCC2=O)N1 (configuration not stated)	-12%	3%	-12%	6%	0%	-1.7%	-7%	-5%
Cc1ccc(NC(=O)Cn2c(=O)cc(-c3ccccc3)c3c(C)nn(C)c32)c(Cl)c1	-14%[46.1 µM]	-12%	.	.	.	-1.4%	?	.
CC(=NCC1CCCO1)c1c(O)n(-c2ccccc2)c(=O)[nH]c1=O (configuration not stated)	6%	-8%	22%	7%	2%	3.0%	-25%	-1%
COc1cccc(C(=O)NCC(=O)N/N=C/c2ccc(OC(=O)c3cccs3)c(OC)c2)c1	-6%	9%	6%	14%	0%	-4.0%	3%	-38%
c1coc(-c2nn3c(-c4ccco4)nnc3s2)c1	8%	-6%	2%	2%	-5%	-6.6%	6%	-9%
COc1ccc(C2CC(c3ccccc3)=NN2c2ccc(N)cc2)cc1 (configuration not stated)	?	20µM*	?	-4%	-20%	-10%	40µM*	?
N#C/C(=C\c1ccc[nH]1)Sc1nc2ccccc2s1	0%	-3%	12%	?	-22%	-12%	3%	-127%
COc1cc(C(=O)NC(=S)Nc2ccc3[nH]c(=O)[nH]c3c2)cc(OC)c1OC	-14%	.	2%	-9%	2%	.	-10%	9%
Cc1oc(/N=C/c2cccc3ccccc23)c(C#N)c1C	4%	-8%	2%	1%	-2%	-2.8%	-2%	4%

Continued (two carried over from the part before).
SMILES	Lassa entry inh	Cruzain inh noDet	Marburg entry inh	RE007 growth inh	SARS PLpro yeast	Cruzain inh Det	2A StopGo	NS1 inh
COc1cc(C(=O)NC(=S)Nc2ccc3[nH]c(=O)[nH]c3c2)cc(OC)c1OC	-14%	.	2%	-9%	2%	.	-10%	9%
Cc1oc(/N=C/c2cccc3ccccc23)c(C#N)c1C	4%	-8%	2%	1%	-2%	-2.8%	-2%	4%
COc1ccc(Nc2nc3[nH]c(=O)cc(O)c3s2)cc1	?	.	?	-8%	-1%	.	-3%	.
CCOC(=O)c1[nH]c2ccc(F)cc2c1NC(=O)c1cc(OC)c(OC)c(OC)c1	-16%	?	-11%	-9%	-9%	-9.3%	-25%	-8%
CNC(=O)OCN1C(=O)C2CC=CCC2C1=O (configuration not stated)	5%[46.1 µM]	.	21%[46.1 µM]	1%	.	.	-8%	.
O=C(NCc1ccc2c(c1)OCO2)C(=O)NCC1OCCCN1S(=O)(=O)c1ccc(F)cc1 (configuration not stated)	.	.	.	-6%	-2%	.	-10%	-1%
Cc1cc2cc(CNC(=O)C(C)Oc3ccccc3)ccc2n1C (configuration not stated)	.	.	.	-17%	-1%	.	-7%	?
CCNC(=O)NC(=O)C(C)Sc1ncc(C(F)(F)F)cc1Cl (configuration not stated)	-23%	.	?	14%	1%	.	12%	5%
CC(C)CN(CC(C)C)S(=O)(=O)N1CCC(C(=O)N2CCc3ccccc3C2)CC1	?	9%	9%	-2%	30%	-1.6%	0%	0%
O=C(NNC(=O)c1cc2ccccc2oc1=O)c1ccccc1[N+](=O)[O-]	1%[46.1 µM]	.	?	131%	2%	.	7%	4%
Cc1ccc(C(=O)Cc2ccccc2)c(O)c1	17%[46.1 µM]	.	29%[46.1 µM]	-14%	.	.	39%[activator]	.
Cc1ccc(NC(=O)CCNS(=O)(=O)c2ccc3[nH]c(=O)oc3c2)cc1C	.	.	.	2%	-6%	.	0%	8%
Cc1cc(C(=O)COC(=O)Cn2c(C(F)(F)F)nc3ccccc32)c(C)n1Cc1ccco1	-8%	-3%	15%&15%	-2%	-3%	-5.2%	-26%	-13%
O=C(CNC(=O)c1ccc(Br)cc1)N/N=C/c1cccnc1	.	.	.	13%	-7%	.	-16%	13%
Clc1ccc(C(c2ccccc2)c2c[nH]c3ccccc23)s1 (configuration not stated)	0%[46.1 µM]	-5%	.	.	.	-4.2%	0%	.
CN(Cc1ccccc1)C(=O)c1ccccc1-c1ccccc1	-17%	.	-25%[14.2 µM]	0%	-8%	.	8%	.
Cc1ccc(OCC(O)CNC2CCCC2)cc1C (configuration not stated)	-23%[46.1 µM]	.	?	?	8%	.	-7%	-18%
CC(C)c1ccc(NS(=O)(=O)c2ccc3nc(-c4ccccc4)[nH]c3c2)cc1	?	13%	?	.	.	-8.8%	-1%	.
Cc1onc(-c2ccccc2)c1C(=O)NCC(O)c1ccccc1 (configuration not stated)	.	.	.	8%	0%	.	-10%	6%
CC(=O)Nc1ccc(S(=O)(=O)N2CCC(N3CCCC3)CC2)cc1	8%	.	-2%	24%	-7%	.	0%	3%
COc1ccccc1CNC(=O)C(=O)NCC(c1cccnc1)N1CCN(c2ccccc2)CC1 (configuration not stated)	-21%[46.1 µM]	22%	.	.	.	-1.5%	0%	.
CCC(C)N(C(=O)COC(=O)CNC(=O)c1sc2ccccc2c1Cl)C1CCS(=O)(=O)C1 (configuration not stated)	29%	.	23%	-12%	3%	.	6%	0%
CC(C)CCN(C)c1ccc(/C=N/n2cnnc2)cc1	-9%	-13%	-1%	-8%	-9%	-7.9%	0%	.
Cc1ccc(S(=O)(=O)c2c(C)c(C)c(C)[nH]c2=O)cc1	11%[46.1 µM]	.	-2%[46.1 µM]	4%	1%	.	22%	-4%
COc1cc2c(cc1OC)C(c1cccc([N+](=O)[O-])c1)N(C(=O)c1ccc(F)cc1)CC2 (configuration not stated)	?	14%	?	10%	3%	-4.8%	0%	-2%
CCC(CC)C(=O)c1c[nH]c(C(=O)NC2CCCCCC2)c1	-29%[46.1 µM]	.	-2%[46.1 µM]	13%	-3%	.	2%	4%
CCC(C)Oc1cccc(OCCCCN2C(=O)NC(C)(C)C2=O)c1 (configuration not stated)	?	?	?	9%	-5%	2.5%	-25%	2%

More results
SMILES	Lassa entry inh	Cruzain inh noDet	Marburg entry inh	RE007 growth inh	SARS PLpro yeast	Cruzain inh Det	2A StopGo	NS1 inh
Nc1ccc(C(=O)Nc2nccs2)cc1	.	.	?	-6%	1%	.	54%[activator]	0%
O=C(COc1coc(CN2CCN(c3ccccc3)CC2)cc1=O)Nc1ccccc1F	-5%	.	-9%	3%	2%	.	?	.
Cc1ccc(C)c(N2CCN(C(=O)CCC(=O)N3CCOc4ccc(Cl)cc43)CC2)c1	.	.	.	6%	-24%	.	-28%	-17%
CN1C(=O)/C(=C\C(=O)c2cccs2)c2ccccc21	-10%	.	?	?	-5%	.	22µM*	-3%
CS(=O)c1ccccc1-c1nc(-c2cccc(Cl)c2)no1 (configuration not stated)	-3%	.	-4%[46.1 µM]	-17%	-4%	.	35%[activator]	.
CCOC(=O)C(=CNNc1ccccc1)C(=O)OCC	1%	.	25%	8%	-2%	.	-3%	-84%
COc1cc(/C=N/NC(=O)c2cc(C)n(-c3ccc(F)cc3)c2C)cc(OC)c1O	-5%[46.1 µM]	.	?	12%	-1%	.	-2%	.
CC/C(=N\NC(=O)c1cc(C2CC2)[nH]n1)c1ccccc1	.	.	.	8%	-19%	.	38%[activator]	0%
COc1cccc(N2CCN(Cc3nnnn3C3CCCCC3)CC2)c1	-1%[46.1 µM]	.	14%[46.1 µM]	22%	1%	.	5%	1%
CC1CCCN(C(=O)CN2C(=O)C(C)Oc3ccccc32)C1 (configuration not stated)	-9%	.	0%[46.1 µM]	-13%	9%	.	-3%	23%
CC(=O)Nc1ccc(S(=O)(=O)NCCSCc2c(Cl)cccc2Cl)cc1	-16%	14%	15%	-19%	-8%	-7.6%	-23%	3%
